# VCAM-1 augmentation – boosters of cytokine-driven VCAM-1 levels – imaging, high-content imaging, pooled HUVEC, TNFa stimulus (AID 457) | Pooled HUVEC, TNFa-induced VCAM-1 immunofluorescence imaging; hits of this screen are not shown here | hit rate 0.2% among 10,000 | calls only;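 active = a top-ranked rise in VCAM-1 staining upheld on image or statistical review; inactive = the rest, including candidates rejected on review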;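 also: compounds tested at 5 µM in the well; cells exposed to compound for 24 hours before fixing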
# FPR ligand – human FPR ligand, with FPRL1 counter-screen; P21462; FPR-expressing cells, fluorescent ligand binding, flow cytometry; inhibition, %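 (tested at 6.7 µM)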; hit rate 0.74% among 24,000;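 also: 0% = buffer wells and 100% = receptor blocker peptide wells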
# Target sequence (P21462 whole entry, looked up): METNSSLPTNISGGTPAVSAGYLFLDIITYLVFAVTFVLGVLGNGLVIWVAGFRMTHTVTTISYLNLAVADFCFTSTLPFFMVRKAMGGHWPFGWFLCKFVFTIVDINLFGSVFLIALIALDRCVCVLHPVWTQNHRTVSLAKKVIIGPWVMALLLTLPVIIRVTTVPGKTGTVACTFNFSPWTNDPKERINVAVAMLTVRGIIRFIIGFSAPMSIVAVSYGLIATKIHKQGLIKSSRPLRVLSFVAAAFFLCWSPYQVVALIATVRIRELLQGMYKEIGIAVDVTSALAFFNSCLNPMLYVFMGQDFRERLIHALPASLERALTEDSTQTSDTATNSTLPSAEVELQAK
# FPRL1 binder – ligands of human FPRL1, also counter-screen for FPR ligands. P25090. FPRL1-expressing cells, fluorescent ligand binding inhibition, flow cytometry. inhibition, %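 (tested at 6.7 µM)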. hit rate 0.3% among 24,000. AID 441;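 also: 0% = buffer alone and 100% = receptor blocker peptide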
# Target sequence (P25090 whole entry, looked up): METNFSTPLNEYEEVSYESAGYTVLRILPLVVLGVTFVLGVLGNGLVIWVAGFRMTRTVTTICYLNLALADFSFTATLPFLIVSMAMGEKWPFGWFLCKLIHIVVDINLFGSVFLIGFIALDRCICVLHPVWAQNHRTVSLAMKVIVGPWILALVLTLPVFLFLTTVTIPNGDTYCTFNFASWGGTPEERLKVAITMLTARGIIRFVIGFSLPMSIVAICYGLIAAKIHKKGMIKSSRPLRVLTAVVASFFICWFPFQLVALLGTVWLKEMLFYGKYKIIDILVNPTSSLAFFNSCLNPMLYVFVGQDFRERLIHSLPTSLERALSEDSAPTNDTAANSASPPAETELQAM
# VCAM-1 down – inhibitors of TNFa-induced VCAM-1 surface display, cell-based, plate reader, pooled HUVEC, TNFa stimulus (AID 454). HUVEC TNFa-induced VCAM-1 surface immunofluorescence, plate reader; numbers were filed only for top-ranked candidate wells. inhibition, % at 5 µM. hit rate 0.2% among 10,000;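 active = compound among top-ranked inhibitors of TNF-induced VCAM-1 adhesion protein staining, with the hit upheld by image or statistical review; inactive = the rest, including hits rejected on review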;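 also: 0% = TNFa with vehicle and 100% = cells without TNFa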
# VCAM-1 down imaging – inhibitors of TNFa-induced VCAM-1 surface display, imaging, high-content imaging, pooled HUVEC, TNFa stimulus (AID 456); HUVEC TNFa-induced VCAM-1 surface expression, immunofluorescence imaging; numbers were filed only for top-ranked candidate wells; inhibition, % at 5 µM; hits with a dose series show IC50 in µM; hit rate 0.2% among 10,000;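 active = top tenth filtered wells with inhibition above zero that passed visual or statistical confirmation; inactive = the rest, including hits rejected on review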;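 also: 0% = stimulated vehicle wells and 100% = unstimulated cells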
# * hit, by the source's call; i = inactive; nt = not tested or not shown.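 The calls were made as follows, unless noted: active = mean above 30%; inconclusive = self-fluorescent; inactive = the rest.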
SMILES,VCAM-1 augmentation,FPR ligand,FPRL1 binder,VCAM-1 down,VCAM-1 down imaging
CCn1cc(C(=O)OCC(=O)OC2CC(C)CCC2C(C)C)c(=O)c2ccc(C)nc21 (stereo unspecified),i,2,-2,i,i
O=C(CCN1CCN(c2ccc(Cl)cc2)CC1)Nc1ccccc1F,nt,5,1,nt,nt
CCOC(=O)c1cccc(NC(=O)c2cnc3ccccc3n2)c1,nt,5,-2,nt,nt
O=C(NCc1nnc(SCC(=O)N2CCCC2)o1)c1c(F)cccc1Cl,nt,0,3,nt,nt
O=C1CN=C(Nc2cccc(C(F)(F)F)c2)N1C1CCCC1,i,-3,8,i,i
COc1cccc(-c2nn(C)c3sc(C(=O)NCc4ccc(C)o4)cc23)c1,nt,15,0,nt,nt
O=C(Nc1ccc(F)cc1Cl)c1ccc2c(=O)n3c(nc2c1)CCCCC3,nt,-9,0,nt,nt
C=CCOc1cccc(C2/C(=C(/O)c3ccc(Cl)cc3)C(=O)C(=O)N2CCN2CCOCC2)c1 (stereo unspecified),nt,0,-4,nt,nt
Cc1noc(/C=C/c2ccco2)c1S(=O)(=O)N1CCC(C(=O)N2CCc3ccccc3C2)CC1,nt,-4,-6,nt,nt
CN(C)S(=O)(=O)c1ccc(C(=O)N2CCCC2c2nc3ccccc3s2)cc1 (stereo unspecified),i,-3,3,i,i
CCCC(=O)NC(C)C(c1cccs1)N1CCN(C)CC1 (stereo unspecified),nt,3,15,nt,nt
CCN1CCN(Cc2ccc(NC(=O)Nc3ccc(OC)cc3)cc2)CC1,nt,-1,-2,nt,nt

# Copied from the results shown, 2 compounds:
SMILES,VCAM-1 augmentation,FPR ligand,FPRL1 binder,VCAM-1 down,VCAM-1 down imaging
CCn1cc(C(=O)OCC(=O)OC2CC(C)CCC2C(C)C)c(=O)c2ccc(C)nc21 (stereo unspecified),i,2,-2,i,i
O=C(CCN1CCN(c2ccc(Cl)cc2)CC1)Nc1ccccc1F,nt,5,1,nt,nt

# In another format: 3 of the compounds above
SMILES: O=C(CCN1CCN(c2ccc(Cl)cc2)CC1)Nc1ccccc1F
  VCAM-1 augmentation: nt; FPR ligand: 5; FPRL1 binder: 1; VCAM-1 down: nt; VCAM-1 down imaging: nt

SMILES: CCOC(=O)c1cccc(NC(=O)c2cnc3ccccc3n2)c1
  VCAM-1 augmentation: nt; FPR ligand: 5; FPRL1 binder: -2; VCAM-1 down: nt; VCAM-1 down imaging: nt

SMILES: O=C(NCc1nnc(SCC(=O)N2CCCC2)o1)c1c(F)cccc1Cl
  VCAM-1 augmentation: nt; FPR ligand: 0; FPRL1 binder: 3; VCAM-1 down: nt; VCAM-1 down imaging: nt

# More structures.
SMILES,VCAM-1 augmentation,FPR ligand,FPRL1 binder,VCAM-1 down,VCAM-1 down imaging
Cc1nc2cc(C(=O)NCCN3CCOCC3)ccc2n1-c1ccc(F)cc1F,nt,0,3,nt,nt
CC(C)(C)NCc1cc2ccccc2[nH]c1=O,i,0,2,i,i
CC(=O)c1c(C)oc2ccc(NS(=O)(=O)c3ccc(O)c(C(=O)O)c3)cc12,i,-2,-1,i,i
COCCCN1C(=O)C(O)=C(C(=O)c2ccc(C)o2)C1c1cccc(Br)c1 (stereo unspecified),nt,11,-5,nt,nt
COc1ccc(CN2CCCC(C(=O)N(C)Cc3ccccc3)C2)cc1OC (stereo unspecified),nt,-3,7,nt,nt
CCOC(=O)N1CCC(NC(=O)C2CCN(C(=O)N3CCOc4ccccc43)CC2)CC1,nt,2,-1,nt,nt
Cc1cc(NC(=O)c2noc3c2CCCC3)nn1Cc1ccc(Cl)cc1,nt,-5,-2,nt,nt
Cc1ccc(CN2C(=O)CCC2C(=O)NCCCN2CCC(C)CC2)cc1 (stereo unspecified),i,-4,-7,i,i
CCOC(=O)CSc1nnc(CNC(=O)Cc2ccccc2)n1-c1ccccc1OC,nt,-4,3,nt,nt
COCC(=O)NCCc1nc(-c2ccccc2)cs1,nt,-2,2,nt,nt
CC1(C)CC(=O)C2=C(C1)N(CCN1CCOCC1)C1=C(C(=O)CC(C)(C)C1)C2c1cccc(Cl)c1,nt,0,-6,nt,nt
Nn1cnnc1SCC(=O)Nc1ccc2c(c1)OCCO2,i,13,1,i,i
O=C(COC(=O)c1cccc(S(=O)(=O)N2CCc3ccccc32)c1)NC1CCS(=O)(=O)C1 (stereo unspecified),i,-6,-3,i,i
O=C(NCCCN1CCOCC1)c1cc(-c2ccc(Cl)cc2)on1,i,1,2,i,i
Cc1cc(C)c2c(n1)SCC(=O)N2CC(=O)NCCC1=CCCCC1,nt,0,-2,nt,nt
COc1oc(-c2ccccc2)nc1C(F)(F)F,i,-10,-4,i,i
CC(NC(=O)Cc1cccs1)C(c1cccs1)N1CCOCC1 (stereo unspecified),nt,3,10,nt,nt
Cc1cccc(-c2nc(CN3CCCC(C(=O)NC4CCCC4)C3)c(C)o2)c1 (stereo unspecified),i,-3,-3,i,i
Cc1ccc(-c2nc(CSCC(=O)NCCN3CCN(Cc4ccccc4)CC3)c(C)o2)cc1,nt,-9,-8,nt,nt
COC(=O)c1ccc(S(=O)(=O)NCc2cccc(OC)c2)n1C,nt,-5,2,nt,nt
CCOc1ccc2[nH]c(=O)c(CN(CCOC)C(=O)N3CCOCC3)cc2c1,i,-8,1,i,i
CCOC(=O)Cc1cc(=O)n2[nH]c(C)c(-c3ccccc3)c2n1,nt,51*,26,nt,nt
COC(=O)C(F)(F)Sc1c(C)[nH]c2ccccc12,i,-2,-4,i,i
CC1CCCCC1NC(=O)c1cc2c(s1)CS(=O)(=O)C2 (stereo unspecified),nt,-3,-4,nt,nt
COc1ccc(C(=O)N(Cc2ccco2)C(C(=O)NC2CCCC2)c2ccc(O)cc2)cc1OC (stereo unspecified),i,-5,-6,i,i
O=C(NCc1cccnc1)C1c2ccccc2C(=O)N1C1CCCCCCC1 (stereo unspecified),nt,48*,13,nt,nt
Cc1nn(Cc2ccc(Cl)cc2)c(C)c1NC(=O)C1CC=CCC1C(=O)O (stereo unspecified),nt,5,-2,nt,nt
CCCn1c(OC)nc2c1c(=O)n(C)c(=O)n2C,i,5,2,i,i
COC(=O)c1ccc(NC(=O)CN2CCN(S(=O)(=O)c3cc(Cl)ccc3OC)CC2)cc1,nt,0,6,nt,nt
O=c1[nH]c(CN2CCN(Cc3ccccc3)CC2)nc2sc3c(c12)CCC3,i,3,-1,i,i
CCCCNC(=O)c1cnc2n(c1=O)CCS2,nt,-2,-4,nt,nt
Cc1ccc(S(=O)(=O)N(CC(=O)N2CCC(C(N)=O)CC2)c2cccc(C(F)(F)F)c2)cc1,i,22,10,i,i
Nc1nc2c(ncn2COCCO)c(=O)[nH]1,i,-5,0,i,i
CCCCc1ccc(NC(=O)N[C@H](C(=O)O)C(C)CC)cc1 (stereo partly specified),i,7,2,i,i
CCOc1nc(-c2ccccc2)ccc1-c1noc(-c2cccnc2)n1,i,-6,6,i,i
CCCN(CCC)CCNC(=O)Cn1cnc2sc(C)c(S(=O)(=O)N3CCOCC3)c2c1=O,nt,-1,8,nt,nt
CCOC(=O)C1=C(CS(=O)(=O)c2ccc(F)c(C)c2)NC(=O)NC1c1ccc(O)c(O)c1 (stereo unspecified),i,0,0,i,i
Cc1ccc(CN2C(=O)CCC2C(=O)NC2CCCC2)cc1 (stereo unspecified),i,-2,4,i,i
Cc1ccnc(N2C(=O)c3ccccc3C2Nc2ccc3c(c2)OCCO3)c1 (stereo unspecified),nt,0,-2,nt,nt
CC(C(=O)NC(=O)NC1CCCCC1)N1CCN(c2ccccn2)CC1 (stereo unspecified),i,5,0,i,i
Cc1ccc2nc(-c3ccccn3)cc(C(=O)N3CCN(c4ncccn4)CC3)c2c1,i,12,-1,i,i
CCOC(=O)c1cc2oc(C)cc2n1CC(=O)OC1CCCCC1,i,6,0,i,i
COc1ccc(N2Cc3cccc(C(=O)NC(C)CCc4ccco4)c3C2=O)cc1 (stereo unspecified),nt,7,-2,nt,nt
Cc1ccc(NC(=O)c2oc3ccccc3c2NC(=O)c2ccc3c(c2)OCO3)cc1,nt,0,12,nt,nt
O=C(CCNS(=O)(=O)c1cccs1)Nc1nccs1,nt,6,-2,nt,nt
COc1cccc(C2CC(=O)Nc3cc4c(cc32)OCCO4)c1OC(C)C (stereo unspecified),i,4,11,i,i
CCCSc1nc(C)c(-c2csc(C(C#N)=C3CCCC3)n2)cc1C#N,nt,-1,-6,nt,nt
COc1ccccc1N1CCN(C(=O)c2oc3cc(C)c(C)cc3c2C)CC1,i,1,0,i,i
CCOC(=O)C1CCCN(c2c(NCCCN(C)Cc3ccccc3)c(=O)c2=O)C1 (stereo unspecified),nt,-4,1,nt,nt
CCOC(=O)C1CCCN(c2c(NCCCN(CC)c3ccccc3)c(=O)c2=O)C1 (stereo unspecified),nt,-5,3,nt,nt
CCOc1ccc(S(=O)(=O)n2c(C)nc3ccccc32)cc1,i,13,0,i,i
COc1cccc(C2=NOC(C(=O)NCC3CCCO3)C2)c1 (stereo unspecified),nt,0,3,nt,nt
COc1ccc(C(=O)CCC(=O)N2CCN(c3ccc(N4CCOCC4)nn3)CC2)cc1,nt,-9,-8,nt,nt
Cn1c(SCC(=O)NCC2CCCO2)nc2c([nH]c3ccccc32)c1=O (stereo unspecified),nt,3,0,nt,nt
O=C(Nc1ccc(F)cc1)C1CCCN(S(=O)(=O)c2cccc3cccnc23)C1 (stereo unspecified),nt,-3,0,nt,nt
CN1CCN(C(=O)C2(NC(=O)Nc3cccc(F)c3)CCCCC2)CC1,i,-1,-1,i,i
COc1ccc(S(=O)(=O)N2CCN(c3ccc4nnc(-c5ccc(F)cc5)n4n3)CC2)cc1,nt,-6,2,nt,nt
COc1ccc(NC(=O)CN2CCN(c3ccccc3F)CC2)cc1,nt,5,-1,nt,nt
Cc1sc(NC(=O)CSc2nc(N)n(CC(=O)c3ccccc3)n2)c(C#N)c1C,i,-4,0,i,i
COC(=O)CCC(=O)N1CCc2cc(S(=O)(=O)N3CCN(c4ccccc4Cl)CC3)ccc21,nt,-2,-3,nt,nt
# Carrying on:
SMILES,VCAM-1 augmentation,FPR ligand,FPRL1 binder,VCAM-1 down,VCAM-1 down imaging
Cc1ccc(-c2nc(CS(=O)(=O)CC(=O)N3CCc4ccccc4C3)c(C)o2)cc1,nt,2,-8,nt,nt
c1ccc(N2CCN(Cc3cn4cccnc4n3)CC2)cc1,i,3,0,i,i
O=C(NCCc1c[nH]c2ccccc12)c1cnc2n(c1=O)CCS2,i,1,-1,i,i
O=S(=O)(c1ccc(N2CCN(c3ccc(F)cc3)CC2)cc1)N1CCCC1,i,0,1,i,i
O=C(Cc1cccs1)NCc1ccc(F)cc1,i,-3,1,i,i
COc1cc(C(c2sc3nc(C)nn3c2O)N2CCC3(CC2)OCCO3)cc(OC)c1OC (stereo unspecified),nt,0,-6,nt,nt
COC(=O)c1ccc(C2C(C(C)=O)=C(O)C(=O)N2CCO)cc1 (stereo unspecified),nt,-3,-3,nt,nt
Cc1ccc(N2CCN(C(=O)c3ccccc3F)CC2)c(C)c1,nt,-12,-12,nt,nt
CCc1c(C(=O)NCc2ccc3c(c2)OCO3)[nH]c(C)c1C(C)=O,nt,-2,8,nt,nt
CCOC(=O)c1[nH]c(C)c(C(=O)Nc2ccccc2C)c1C,i,-6,-3,i,i
COc1ccc(N2CCN(CCNC(=O)c3ccc(NC(=O)C4CCCO4)cc3)CC2)cc1 (stereo unspecified),nt,-6,-5,nt,nt
CSc1nc(C)c(C(=O)Nc2ccccc2)c(C)c1C#N,i,-6,1,i,i
COc1ccc(CC(=O)N2CCNC2=O)cc1,nt,-2,4,nt,nt
Cc1nn(C)c(C)c1S(=O)(=O)N1CCCC(C(=O)NC2CCCCC2)C1 (stereo unspecified),nt,-3,1,nt,nt
COc1ccc(-n2c(Cc3cccn3C)nnc2SCC(=O)NCCc2ccccc2)cc1,nt,4,4,nt,nt
CCOC(=O)N1CCN(C(=O)c2ccc3nc4ccc(Cl)cc4c(=O)n3c2)CC1,nt,1,-3,nt,nt
COCCNC(=O)c1csc2c1CCCC2,nt,0,10,nt,nt
CCOC(=O)Cn1ncc2c(=O)oc3ccccc3c21,nt,-2,1,nt,nt
COc1ccc(C(=O)NCCn2cc(SCC(=O)NCc3ccco3)c3ccccc32)cc1,nt,2,-3,nt,nt
COc1ccc(CCN2CCC(Nc3nc4ccccc4n3Cc3ccc(F)cc3)CC2)cc1,i,-8,0,i,i
COCCCn1c(=O)c2ccccc2c2ccccc2c1=O,nt,4,-1,nt,nt
Cc1cc(NS(=O)(=O)c2ccccc2)no1,i,-1,-1,i,i
O=C(NCc1ccc2c(c1)OCO2)Oc1ccccc1,nt,-3,2,nt,nt
O=C(C1CCCN(S(=O)(=O)c2cccc3cccnc23)C1)N1CCN(c2ccccc2F)CC1 (stereo unspecified),nt,8,5,nt,nt
COc1ccc(C(=O)N(CCN2CCOCC2)CC(=O)NC2CCCC2)cc1OC,i,-7,1,i,i
COC(=O)c1ccc(Oc2nc(NC(C)C)nc(N(C)C)n2)cc1,i,4,0,i,i

# An excerpt. The share of hits here may be higher or lower than overall.
